Screening results deposited in PubChem BioAssay by ICCB-Longwood Screening Facility, Harvard Medical School.
Ba CapD inh: CapD enzyme inhibition. z-score (no concentration beside the values). AID 492967. purified CapD enzyme, fluorescence intensity read-out; stronger effect = lower value; some hits fall short of the stated cut. 140,000 tested, 0.23% active;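 active means z-score under -4 in either of two replicates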;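 further: stock transfer was 100 nL into about 40 µL; score is relative to mean and spread of the plate; one replicate is shown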
AID504770: growth inhibitors of E. coli YBA685 in a screen for V. cholerae RctB (chromosome II replication) inhibitors; z-score (concentration not given with the values); 130,000 tested, 0.27% active; E. coli YBA685 rctB-dependent plasmid, OD600 growth, 3 h; stronger effect = lower value; AID 504770;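 active means z-score under -2 on both plates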;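 further: wells of about 30 µL received 100 nL stock; score is relative to mean and SD of the test wells; the first replicate is given; strong numbers were not always called active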
* hit, by the source's call; nt = not tested or not shown.

SMILES	Ba CapD inh	AID504770
Cc1ccc(NC(=O)COC(=O)C2CCC(=O)N2)c(S(=O)(=O)N2CCOCC2)c1 (stereo not given)	nt	0.3
CCOC(=O)c1ccc(NC(=S)NN2CCN(C)CC2)cc1	-0.86	0.4
O=S(=O)(NC1c2cccc3cccc(c23)C1N1CCOCC1)c1ccccc1 (stereo not given)	1.28	nt
COc1ccc2[nH]cc(CCNC(=O)NC34CC5CC(CC(C5)C3)C4)c2c1	-0.12	-0.55
O=C(CSc1nccn1-c1ccc(F)cc1)Nc1ccc2c(c1)OCCO2	-0.51	-0.45
CCOC(=O)c1c(NC(=O)CSc2nnc(CNC(=O)c3ccccc3C(F)(F)F)n2C)sc2c1CCC2	-0.655	nt
CCOC(=O)c1c(C)n(C2CC2)c2ccc(OC)cc12	-0.445	-0.85
CC(=O)c1nnn(-c2cccc(Cl)c2Cl)c1C	-0.055	nt
O=C(CSc1cccc[n+]1[O-])N(CCc1ccccc1)Cc1ccccc1	0.205	-0.4
Cc1ccc(-c2cc(C(=O)N(C)C3CCCCC3)no2)cc1	0.16	0
COc1ccccc1CNc1ccc(C(=O)N2CCN(C)CC2)cc1S(=O)(=O)Nc1cccc(C(F)(F)F)c1	0.045	nt
CCc1ccc(-c2nnn(CC#N)n2)cc1	nt	0.25
Cc1ccc(NC(=O)C2CC=CCC2C(=O)N2CCCCC2)cc1 (stereo not given)	nt	-0.45
O=C(N/N=C/c1ccc(/C=C/c2ccccc2)cc1)c1ccccc1Oc1ccccc1	8.54	nt
O=C(Nc1cc(Cl)cc(Cl)c1)c1cc(S(=O)(=O)NCC2COc3ccccc3O2)ccc1F (stereo not given)	-0.455	nt
O=C(CCS(=O)(=O)c1cc(Br)cc2c1N(C(=O)C1CC1)CC2)NC1CCCCCC1	-0.015	-0.15
Cc1ccc(/C=N/Nc2ccc3c(C(F)(F)F)cc(C(F)(F)F)nc3n2)cc1	0.16	nt
CCCNC(=O)c1c(C)cc(=O)oc1C	-1.63	-0.4
CCOc1ccc2c(c1)nc1n2C(=O)C(c2ccccc2)CS1 (stereo not given)	0.215	0.25
Cc1ccc(-c2nc3ccccc3s2)cc1NC(=O)c1ccc2c(c1)OCCO2	-0.28	-0.95
O=C(Nc1ccc(OC(F)(F)F)cc1)C1=NCCN1	-0.495	-0.6
O=C(Nc1ccc(NC(=O)c2ccccc2O)cc1)c1ccc(Cl)cc1	2.17	0.45
CNCC(O)CN1CCN(c2ccccc2OC)CC1 (stereo not given)	0.725	-0.8
Cc1ccc(-c2cc(C(=O)N3CC(C)OC(C)C3)c3ccccc3n2)cc1 (stereo not given)	3.92	-0.1
COc1ccc(C2c3ccsc3CCN2S(=O)(=O)c2ccc(Cl)cc2)cc1 (stereo not given)	0.6	0.45
C=C(C)c1cccc(C(C)(C)NC(=O)N(C)C2CCN(C)CC2)c1	nt	-0.85
O=c1c(-c2ccccc2)c(O)nc2ccccn12	-0.875	-0.45
O=C1CC(c2cccs2)CC(O)=C1C=NCCN1CCNCC1 (stereo not given)	-0.465	2.05
Cc1onc(-c2ccccc2)c1C(=O)OCc1cc(=O)n2cc(Br)ccc2n1	nt	0.2
S=c1[nH]nc(Nc2ccc(Br)cc2Cl)s1	-1.19	-0.35
O=C(O)CCc1nc(-c2cccs2)no1	-0.88	-0.3
COc1ccc(CSc2nnc(-c3sccc3-n3cccc3)o2)cc1	-0.19	nt
CCCC(NC(=O)c1ccccc1)c1nc2ccccc2[nH]1 (stereo not given)	0.045	-0.65
O=C(CN1CCN(c2ccccn2)CC1)NC(=O)NC1CCCCC1	nt	1.55
COc1ccc(/C=C2\C=C(c3ccccc3)N(c3cccc4ccccc34)C2=O)cc1Br	0.235	nt
CN(Cc1ccccc1)C(=O)COC(=O)Cc1ccc(Cl)cc1	-0.64	-0.2
CCN(C(=O)c1noc2c1CCCC2)c1ccccc1	-0.245	-0.05
CC1(C)CC(=O)C=C(NCC(c2cccs2)N2CCOCC2)C1 (stereo not given)	nt	-0.1
O=C(Oc1ccc2ccc(=O)oc2c1)c1cccs1	2.63	-0.3
Cc1nc2c(c(C)c1CCC(=O)N1CCCC1)c(=O)n(C)c(=O)n2C	5.8	-0.9
CCOC(=O)c1c(Cl)cc(C)cc1N1CCCC1	-0.44	nt
CCCc1c(C(=O)Nc2cc(C)on2)cnn1-c1ccccc1	0.055	-0.7
CN(C(=O)CCn1c(=O)oc2ccccc21)c1ccccc1	0.41	-1.35
COc1ccc(N=C2SC(C(=O)NCCc3ccccc3)CC(=O)N2Cc2ccc3c(c2)OCO3)cc1 (stereo not given)	0.37	nt
CC(=O)NCc1cc2c(cc1Br)OCO2	0.13	-1.3
Fc1ccccc1OCCSc1nnc2c(n1)[nH]c1ccccc12	nt	-0.4
COc1cc(C2CC(C(F)(F)F)n3ncc(C(=O)NC(C)(C)C)c3N2)cc(OC)c1OC (stereo not given)	0.065	1.25
O=C1NC(=S)N(Cc2ccco2)C(=O)/C1=C\c1cn(CC(=O)N2CCOCC2)c2ccccc12	-0.515	1
COc1ccc(-c2c(C)nn3c(NCCC4=CCCCC4)cc(C)nc23)cc1OC	0.055	1.5
CCCCOc1ccc(CC(=O)O)cc1	0.61	0.45
CCc1ccc(CN2C(=O)c3ccccc3C2C(=O)NCCc2ccccc2)cc1 (stereo not given)	0.685	-1.35
Cc1cc(C)cc(CC(C)CC(=O)Nc2ccccc2I)c1 (stereo not given)	-0.31	-0.3
COC(=O)c1ccc(CNC(=O)c2oc3ccc(OC)cc3c2C)cc1	nt	-0.35
COc1cc(OC)c(NC(=O)c2sc3ncn(CC(=O)Nc4ccc(C)c(Cl)c4)c(=O)c3c2C)cc1Cl	-0.39	nt
O=C(C1CCCCC1)N1N=C2/C(=C/c3cccs3)CCCC2C1c1cccs1 (stereo not given)	nt	-0.45
COc1ccccc1Cn1cccc1C1=NC(CC(C)C)CO1 (stereo not given)	-0.055	0.5
O=C(Nc1ccccc1)c1ncoc1-c1ccc(Cl)cc1	0.48	-0.45
CCS(=O)(=O)c1nnnn1-c1ccccc1	nt	-0.2
CCOC(=O)c1c[nH]c2ccc(OC(F)(F)F)cc2c1=O	-0.475	nt
COc1ccc(S(=O)(=O)N2CCNC(=O)CC2)cc1	0.995	-0.5
Additional entries.
SMILES	Ba CapD inh	AID504770
Cc1onc(-c2ccccc2Cl)c1C(=O)NC(C(=O)O)C(C)C (stereo not given)	nt	0.25
CCc1ccccc1Oc1coc2cc(OC(=O)c3ccccc3F)ccc2c1=O	-0.01	0.35
O=C(O)c1ccccc1SC/C=C/c1ccccc1	-0.04	-0.6
CC(=O)Nc1ccc(S(=O)(=O)Nc2ccc(S(=O)(=O)Nc3cc(C)on3)cc2)cc1	-0.275	nt
Cc1ccc(C)c(Nc2cc(N3CCOCC3)c3nonc3c2[N+](=O)[O-])c1	-0.37	nt
CC1CCN(C(=O)CN(c2ccc(Cl)c(C(F)(F)F)c2)S(=O)(=O)c2ccccc2)CC1	0.03	-0.65
CCOC(=O)CC1=C(C(=O)OCC)C(c2ccccc2[N+](=O)[O-])C(C#N)=C(N)O1 (stereo not given)	1.55	nt
COc1ccc2c(c1)-c1nc(N)sc1CC2	1.29	-0.6
CCN(Cc1nc2ccccc2c(=O)[nH]1)Cc1nc2ccc(Cl)cc2n1CCO	nt	0.1
CN1CCN(CC2CC=CCC2)CC1 (stereo not given)	0.465	0
O=c1cccc2n1CC1CC2CN(c2nc(Cl)nc(Cl)n2)C1 (stereo not given)	nt	-0.3
COc1ccc(S(=O)(=O)Nc2cc3oc4ccccc4c3cc2OC)cc1	0.1	0.35
CC1CCN(C(=O)c2cc3c(s2)-c2ccc(Cl)cc2SC3)CC1	6.34	0.45
COC(=O)NCN1C(=O)C2C3C=CC(C3)C2C1=O (stereo not given)	-1.31	-0.75
N#Cc1c(Nc2ccccc2)sc2c(O)cc(=O)[nH]c12	nt	-0.45
COc1ccc(OC)c(C2CC(=O)N(c3ccccc3)C3=C2C(=O)OC3)c1 (stereo not given)	nt	-0.75
COc1cc(C=C2C(=O)NC(=O)NC2=O)cc(Br)c1OCCOc1ccccc1	-0.365	nt
COCCN(CCCN1CCc2ccccc21)C(=O)Nc1ccccc1C(F)(F)F	0.25	nt
COc1cc(C2N(c3ccc(Cl)cc3)N=C(C(C)=O)N2c2ccc(N3CCOCC3)cc2)ccc1OCc1ccc(Cl)cc1 (stereo not given)	-1.15	nt
CCCOc1ccc(NC(=O)CCCN2C(=O)c3ccccc3C2=O)cc1	-0.04	0.6
Cc1ccc(C2=C/C(=C3\OC(=O)c4ccccc43)C(=O)O2)cc1	-0.01	1.85
CC(C)(C)c1ccc(NC(=O)C2CCCCN2S(=O)(=O)c2ccccc2)cc1 (stereo not given)	-0.355	1.65
N/C(=N\OC(=O)C(Cl)Cl)c1ccc(OCc2ccc(Cl)cc2)cc1	0.455	nt
O=C(OCCN1CCOCC1)C1c2ccccc2Oc2ccccc21	-0.46	2.1
CN(C)CCCn1c(N)c(-c2nc3ccccc3[nH]2)c2nc(C#N)c(C#N)nc21	0.07	-0.85
O=Cc1cc2cccc3c2n(c1=O)CCC3	0.295	nt
NS(=O)(=O)c1ccc(NC(=O)OCC(F)(F)F)cc1	nt	-0.25
Cc1c(C(=O)N2CCC3(CC2)OCCO3)sc2nc3n(c(=O)c12)CCCC3	0.69	-0.6
CC12CC(c3ccccc3O1)N(C(=O)c1cccc(F)c1)C(=S)N2c1ccccc1 (stereo not given)	0.655	0.7
O=C(NC1CCc2ccccc21)c1n[nH]c(=O)c2ccccc12 (stereo not given)	-0.325	0.45
CN(C)C=C=C(O)c1ccccc1C(=O)c1ccc(Cl)cc1	25.6	0.2
CCN(CC)c1nc(N)nc(Nc2ccc3cc(-c4ccccc4)c(=O)oc3c2)n1	56.5	0.45
O=C1O/C(=C\c2ccc(-c3ccc(Cl)cc3Cl)o2)c2ccccc21	-0.765	nt
CCc1ccc(S(=O)(=O)Nc2ccc3oc4c(c3c2)CC(C)CC4)cc1 (stereo not given)	-0.035	nt
COc1cc(I)c(OC)cc1Cl	-0.08	nt
N#CC(C#N)=Cc1ccc(OC(=O)c2cccs2)cc1	nt	-0.35

Overlap with the part before: 5 compounds; new compounds follow.
SMILES	Ba CapD inh	AID504770
CCN(CC)c1nc(N)nc(Nc2ccc3cc(-c4ccccc4)c(=O)oc3c2)n1	56.5	0.45
O=C1O/C(=C\c2ccc(-c3ccc(Cl)cc3Cl)o2)c2ccccc21	-0.765	nt
CCc1ccc(S(=O)(=O)Nc2ccc3oc4c(c3c2)CC(C)CC4)cc1 (stereo not given)	-0.035	nt
COc1cc(I)c(OC)cc1Cl	-0.08	nt
N#CC(C#N)=Cc1ccc(OC(=O)c2cccs2)cc1	nt	-0.35
CCn1c2ccccc2c2nnc(SCC(=O)c3cc(C)n(-c4ccc5c(c4)OCCO5)c3C)nc21	nt	-0.65
O=C1N=C(N2CCN(C(=O)c3cc4ccccc4oc3=O)CC2)S/C1=C\c1cccs1	-0.68	-0.15
CCOC(CNc1ncccc1C(F)(F)F)(OCC)c1ccccn1	0.565	nt
N#Cc1ccccc1/C=C/C(=O)N(CCO)CC(O)c1ccccc1 (stereo not given)	nt	-1.2
CC(C)NC(=O)C(C)n1ncn2cccc2c1=O (stereo not given)	-0.15	-0.65
CCn1c(SCc2ccccc2)nc2sc3c(c2c1=O)CC(C)(C)OC3	0.14	nt
COc1ccccc1NC(=O)c1ccc(N)cc1	0.315	0.1
C=C[C@H]1CN2CC[C@H]1C[C@@H]2[C@@H](OC(=O)OCC)c1ccnc2ccc(OC)cc12	0.36	-0.1
CCO/C=N/c1c(C#N)c2c(c(=S)n1C)COC(C)(C)C2	-0.28	-0.05
COc1cc2c(=O)n(CC3CCCO3)c(=O)n(CC(=O)c3cccc(Br)c3)c2cc1OC (stereo not given)	-0.535	-0.45
O=C(c1nc(-c2ccc(Cl)cc2)n2c1CCCCC2)N1CCc2ccccc21	-0.665	-0.8
O=C(N1CCCC1)N1c2ccccc2C=Cc2ccccc21	nt	1.55

Of the compounds above, these have a cyano group.
SMILES	Ba CapD inh	AID504770
CCc1ccc(-c2nnn(CC#N)n2)cc1	nt	0.25
CCOC(=O)CC1=C(C(=O)OCC)C(c2ccccc2[N+](=O)[O-])C(C#N)=C(N)O1 (stereo not given)	1.55	nt
N#Cc1c(Nc2ccccc2)sc2c(O)cc(=O)[nH]c12	nt	-0.45
CN(C)CCCn1c(N)c(-c2nc3ccccc3[nH]2)c2nc(C#N)c(C#N)nc21	0.07	-0.85
N#CC(C#N)=Cc1ccc(OC(=O)c2cccs2)cc1	nt	-0.35
N#Cc1ccccc1/C=C/C(=O)N(CCO)CC(O)c1ccccc1 (stereo not given)	nt	-1.2
CCO/C=N/c1c(C#N)c2c(c(=S)n1C)COC(C)(C)C2	-0.28	-0.05

(further entries)
SMILES	Ba CapD inh	AID504770
COC(=O)c1cc2sccc2n1C(C)C(=O)Nc1ccccc1OC (stereo not given)	0.265	-0.7
COc1ccc(C(=O)NC(C)C(c2cccs2)N2CCOCC2)c(OC)c1 (stereo not given)	-1.26	-0.35
O=C(NCc1ccccc1)c1cc(C2CC2)[nH]n1	0.055	-0.3
O=C(NC1CC2CCCC(C1)N2Cc1ccccc1)C1CC1 (stereo not given)	nt	-0.4
Cc1nc(C(F)(F)F)ccc1NC(=O)N1CCCN(Cc2c(F)cccc2Cl)CC1	-0.475	nt
Cc1nc2ccc(NC(=O)c3ccccc3Cl)cc2o1	0.005	0.1
NC(=O)Cc1nnc(-c2ccccc2)c(-c2ccccc2)n1	nt	-0.25
O=S(=O)(c1ccc(OC(F)(F)F)cc1)N1CCN(Cc2nnc(-c3ccco3)o2)CC1	nt	-0.25
COCCCNC(=S)Nc1ccc(Cl)cc1	-0.72	nt
Cc1noc2ncnc(N3CCCC(C(=O)N4CCN(c5ccccc5F)CC4)C3)c12 (stereo not given)	1.12	-0.1
CC1=NC2(CCN(C(=O)c3ccc(Cl)nc3)CC2)N=C1c1cccc(C(F)(F)F)c1	0.11	nt
